# miR-21 FLuc: raises the signal of a miR-21 reporter. HeLa miR-21 FLuc reporter, luciferase, 48 h. 340,000 tested, under 10 active. Potency, µM (top dose mostly 38.3 µM), without a hit: at the top dose reporter change, positive = more light; active = well fitted rising curve with a large enough effect; inconclusive = small, poorly fitted or top-dose-only effect; inactive = no such curve, though single readings can be large or run the other way;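 note: % of control where 0% means no effect; miR-21 action dims this reporter so a rising signal means less miR-21 action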
#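 HeLa cells stably expressing CMV-driven firefly luciferase with a downstream miR-21 binding sequence, endogenously expressing miR-21, were treated with titrations (up to about 40uM final) for 48 hours at 37 degree Celsius. Luciferase luminescence was read after lysis.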
# GLA inh pH 4.5: alpha-galactosidase A (human) inhibition, pH 4.5; P06280; purified enzyme, 4-MU-alpha-Gal fluorescence, pH 4.5; activity change, negative = inhibition, % at 105 µM; 230,000 tested, under 10 active; AID 1467; inconclusive = small, poorly fitted or top-dose-only inhibition, or a rising curve; inactive = flat fitted curve, though single readings scatter; no compound was filed as active;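 note: 0% = full activity with enzyme and -100% = basal without enzyme; dose as in the result columns while the protocol names 77 µM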
# Target sequence (P06280 whole entry, looked up): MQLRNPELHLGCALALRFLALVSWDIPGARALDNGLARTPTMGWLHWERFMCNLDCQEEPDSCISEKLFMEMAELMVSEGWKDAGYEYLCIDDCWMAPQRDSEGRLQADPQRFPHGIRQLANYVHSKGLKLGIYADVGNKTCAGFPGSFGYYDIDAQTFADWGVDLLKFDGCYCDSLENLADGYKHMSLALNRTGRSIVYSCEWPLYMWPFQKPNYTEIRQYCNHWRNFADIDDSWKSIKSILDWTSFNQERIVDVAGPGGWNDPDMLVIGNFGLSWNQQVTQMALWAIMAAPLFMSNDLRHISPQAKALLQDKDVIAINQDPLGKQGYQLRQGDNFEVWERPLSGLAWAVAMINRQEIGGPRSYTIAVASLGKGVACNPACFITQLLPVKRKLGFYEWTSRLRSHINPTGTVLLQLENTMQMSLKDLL
# Rango release inh: prevents RanGTP from dissociating the Rango-importin beta complex; Biochemical FRET Rango-importin beta, RanGTP-induced dissociation; Potency, µM (highest dose often 46.1 µM), for inactives: top-dose activity change, negative = inhibition; 0.071% of 340,000 active; AID 540253; active means falling FRET ratio curve, often poorly fitted, with flat reads before Ran was added; inconclusive means other falling curves, or compound fluorescence or quenching; inactive means flat or rising ratio curve;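 note: potency is the fitted concentration of half-maximal effect; % of control where 0% means no effect; nearly all actives have a fitted effect of over 45% in size; -100% = wells without RanGTP and RCC1; the record marks most hits as doubtful in a second field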
#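 Recombinant Rango FRET biosensor (EYFP–snurportin 1 IBB–cerulean CFP10) at 0.1 uM premixed with 0.25 uM importin beta in PBS, 1 mM DTT, 0.02% Tween-20, 0.1% BSA. Compound added 5 min; RanGTP-RCC1 (0.6 uM Ran, 2 mM GTP, 0.2 uM RCC1) then triggers release, read at 45 min.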
# Rango complex inh: inhibitors of Rango-importin beta complex formation; Q14974; Rango CFP/YFP FRET sensor + importin beta, 45 min; Potency, µM (top dose mostly 92.2 µM), for inactives: at the highest dose inhibition of complex formation; 0.031% of 340,000 active; active = rising FRET ratio curve, often small or poorly fitted; inconclusive = mostly compound fluorescence or quenching in the first reads; inactive = flat curves in all reads;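 note: potency is the fitted concentration of half-maximal effect; 0% = DMSO wells and 100% = buffer wells lacking importin beta; nearly all actives have a fitted effect of over 15% in size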
#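 FRET biosensor Rango (snurportin 1 IBB between N-terminal EYFP and C-terminal Cerulean), 50 nM in PBS/1 mM DTT/0.02% Tween-20/0.1% BSA, preincubated 5 min RT with compound; 0.125 microM importin beta added, 45 min RT, CFP/YFP FRET ratio read.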
# Numbers without * were called inactive; ? = inconclusive; . = not tested or not shown; [ ] = remark or other dose. An excerpt; the hit share may differ from the screen's.
SMILES | miR-21 FLuc | GLA inh pH 4.5 | Rango release inh | Rango complex inh
CCCn1c(=O)c(C(=O)N/N=C/c2ccccc2F)c(O)c2ccccc21 | -39% | 2 | 16% | 3.7%
CC(C)(C)OC(=O)C[C@H]1C/C=C\C[C@@H](CC(=O)N(CCO)Cc2ccccc2)C(=O)N2CCC[C@@H]2COC1=O | . | . | -1% | -2.4%
O=C(CN1C(=O)c2ccccc2C1=O)Oc1ccc(Cl)cc1 | -1% | . | 0% | 4.8%
COc1cc(CNC2CCCC2)cc(OC)c1 | -2% | -25 | -18% | 0.2%
Cc1ccnc(NC(=O)CCC(=O)N(CC(=O)NCCc2ccccc2)c2ccc(F)cc2)c1 | 1% | . | 5% | 4.5%
COc1ccc2oc(C(=O)OCC(=O)NCC3CCCO3)c(C)c2c1 (stereo unspecified) | . | . | -2% | -4.8%
O=C(O)c1c(-c2ccccc2)oc2ccc(O)cc12 | -2% | . | -14% | ?
COc1ccc(NC2c3ccccc3C(=O)N2Cc2ccc3c(c2)OCO3)cc1 (stereo unspecified) | -14% | -8 | -5% | -2.8%
ON=C1c2ccccc2-c2ccccc21 | -25% | . | -8% | 6.2%
CC(=O)Nc1ccc(S(=O)(=O)N2C(=O)c3cccc4cccc2c34)cc1 | 1% | 7 | . | .
CCCC(=O)Nc1cc(Cl)ccc1C | 1% | -8 | 9% | -0.2%
Cc1cccc(C(=O)NCc2nnc(SCC(=O)Nc3nnc(C)s3)n2C)c1 | 0% | . | -4% | 0.2%
O=C(NC1CCCCC1)C(=S)NC1CCCCC1 | 0% | -3 | . | .
COc1ccc(OC)c(NC(=O)c2oc3c(c2C)C(O)CC(C)(C)C3)c1 (stereo unspecified) | -7% | . | -22% | -9.6%
CCOC(=O)C(=O)Nc1ccccc1C(=O)OCC | -22% | 5 | -19% | 2.0%
COCCOC(=O)c1cc(C(=O)c2cc(Cl)ccc2O)coc1=N | -4% | 0 | -18% | ?
CCOc1ccc(NC(=O)CCN2C(=O)C3CCCCC3C2=O)cc1OCC (stereo unspecified) | . | . | 14% | -0.5%
O=C(O)CNC(=O)C12CC3CC(CC(Cl)(C3)C1)C2 | -1% | 4 | 6% | 4.7%
COc1ccc(/C=C(/NC(=O)c2cccs2)C(=O)NC(C)(C)C)cc1OC | -3% | . | 15% | -2.2%
O=C(Nc1ccc(F)cc1)C1CCCN(S(=O)(=O)c2ccc(-n3cnnn3)cc2)C1 (stereo unspecified) | 3% | . | -7% | 0.3%
CC1=C(C(=O)NCc2ccccc2)C(c2ccc(C)o2)n2ncnc2N1 (stereo unspecified) | -3% | -5 | -19% | 3.1%
Nc1ccc(O)cc1C(=O)OCC(=O)c1ccc(C2CCCCC2)cc1 | 8% | -4 | -3% | 0.1%
O=S(=O)(NC1=NCCC1)c1cccc(NS(=O)(=O)c2ccc(OC(F)(F)F)cc2)c1 | -8% | 1 | 22% | -0.3%
CCc1nnc(NC(=O)c2sc3nc4c(cc3c2N)CCCCCC4)s1 | -48% | -3 | ? | ?
Cc1ccc2cc3c(NC(=O)C4CCCO4)nn(CC(C)C)c3nc2c1 (stereo unspecified) | -2% | 12 | ? | ?
O=C(COC(=O)c1ccccc1Br)Nc1cc(S(=O)(=O)N2CCOCC2)ccc1N1CCCC1 | -1% | -6 | 12% | -3.8%
CC(=O)Nc1cccc(NC(=O)c2cccc(S(=O)(=O)N3CCN(Cc4ccccc4)CC3)c2)c1 | . | . | 2% | -0.7%
CCc1cccc(C)c1NC(=O)CCCN1C(=O)NC(C)(C)C1=O | . | . | -12% | -0.2%
O=C(CSc1nc(C2CC2)nc2ccccc12)Nc1ccccc1 | -1% | . | -8% | 0.1%
COCCCn1c(=O)/c(=C\c2ccccc2OC(F)F)s/c1=C(/C#N)C(=O)NC(C)C | -6% | -1 | 2% | ?
C=CSc1sc(Cl)c(N2CCOCC2)c1[N+](=O)[O-] | ? | -3 | -5% | -0.8%
COc1cccc(-c2noc(CCC(=O)NCC3CCCO3)n2)c1 (stereo unspecified) | -12% | 9 | 20% | -0.6%
CC(C)C(C(=O)NCC1CCCO1)N(Cc1ccccc1)C(=O)CNS(=O)(=O)c1ccccc1 (stereo unspecified) | -1% | . | -5% | -3.0%
CCC(C)NC(=O)CSc1c2c(nc3ccccc13)CCCC2 (stereo unspecified) | 17% | 6[21.1 µM] | 8% | -5.0%
COc1ccc(NC(=O)CC(CC(=O)O)c2cc(OC)c(OC)c(OC)c2)cc1 (stereo unspecified) | -1% | 8 | 2% | -0.8%
CN1CCC(CNC(=O)Nc2ccccc2)(c2ccccc2)CC1 | -13% | . | 0% | -1.2%
Cc1ccccc1C(=O)N1CCC(C(=O)Nc2ccc3c(c2)OCO3)CC1 | -5% | 6 | 18% | 4.7%
CC(=O)Nc1ccc(N2C(=O)c3ccc(C(=O)Nc4nnc(SCc5ccc(F)cc5)s4)cc3C2=O)cc1 | -2% | -17 | -1% | -3.5%
COc1cc(C(C(=O)NCC2CCCO2)N(C(=O)Cn2nnc3ccccc32)c2ccc(C(C)=O)cc2)ccc1O (stereo unspecified) | -28% | . | 5% | 5.5%
S=c1[nH]nc(-c2ccc(Cl)cc2)n1-c1cccnc1 | -3% | -4 | 1% | -1.8%
COc1ccc(S(=O)(=O)NCc2csc(C)n2)cc1 | 3% | -3 | -4% | -0.8%
Cn1nnnc1NCc1c(F)cccc1Cl | -3% | -3 | 0% | 0.2%
O=C(N/N=C/c1cn(-c2ccccc2)nc1-c1ccc(F)cc1)c1ccc2c(c1)OCO2 | -22% | 4 | 13% | 5.5%
COc1ccccc1-n1c(SC(C)C(=O)NCC2CCCO2)nc2cc(Cl)ccc2c1=O (stereo unspecified) | . | . | -23% | -1.4%
Nc1cccnc1Sc1cc(Cl)c(Cl)cc1Cl | -11% | -7 | -2% | -2.9%
CCOc1ccc(OCCOc2ncnc3ccccc23)cc1 | -33% | -16 | 9% | 3.9%
O=C(CSc1nccc(=O)[nH]1)Nc1ccc(N2CCOCC2)cc1 | 10% | . | -13% | -3.5%
Cc1ccc(S(=O)(=O)CCC(=O)OCCOc2cccc(Br)c2)cc1 | . | . | 1% | 6.4%
COc1ccc(O[C@H]2C=C[C@@H](c3ccccc3)O[C@@H]2CO/N=C/C[C@@H]2C=C[C@H](OC(C)=O)[C@@H](COC(C)=O)O2)cc1 | 1% | -5 | . | .
CC1(C)C=Cc2cc(-c3coc4cc(O)cc(O)c4c3=O)cc(O)c2O1 | . | . | -18% | -1.3%

# (more compounds)
SMILES | miR-21 FLuc | GLA inh pH 4.5 | Rango release inh | Rango complex inh
CC1CN(C(=O)c2scc3c2OCCO3)CC(C)O1 (stereo unspecified) | -4% | 0 | 1% | 0.3%
CCNC(=O)CC1C(=O)N(c2cccc(C)c2)C(=O)N1CCC(C)C (stereo unspecified) | 3% | . | -8% | -3.8%
Cc1ccccc1OCc1nnc(SCc2cc(=O)[nH]c3ccccc23)n1-c1ccccc1 | -7% | 8 | 11% | 5.7%
CC(=O)N1c2ccc(S(=O)(=O)N3CCCC(C(=O)Nc4cc(C)cc(C)c4)C3)cc2CC1C (stereo unspecified) | 3% | . | -8% | 0.0%
CCCn1c(SCC(=O)NCC2CCCO2)nc2c1c(=O)n(C)c(=O)n2C (stereo unspecified) | 4% | 5 | 32% | 4.5%
NC(=O)C1CCN(c2nc(C3CC3)nc3c2nnn3Cc2ccccc2Cl)CC1 | -1% | -7 | 18% | -0.1%
O=C(Nc1ccc(F)cc1)c1ccc(CSc2ccc(Cl)cc2)o1 | -2% | -19 | 17% | -0.9%
O=C(COC(=O)c1ccc[n+]([O-])c1)Nc1ccccc1OC(F)F | . | . | 3% | -1.3%
C=CCc1ccccc1OCC(=O)OCCNC(=O)c1cccnc1 | -1% | 1 | 0% | -0.6%
COc1ccc(Nc2ncnc3c2cnn3-c2cccc(C)c2)cc1OC | -5% | 6 | -3% | -3.9%
CCN(CC)c1ccc(NC(=O)c2ccco2)cc1 | -16% | 2 | -8% | 3.8%
Cc1cccc(C)c1Nc1nnc(SCC(=O)c2ccc(Br)s2)s1 | 0% | 1 | 2% | -4.2%
CCC1(C)Cc2c(sc3nc(NN)n(C)c(=O)c23)CO1 (stereo unspecified) | 4% | 3 | -8% | 3.1%
Cc1ccc(/C=N/Nc2ccc3ccccc3n2)o1 | ? | -3 | ? | ?
O=C(Nc1nc(-c2ccccn2)cs1)c1ccc(F)c(S(=O)(=O)N2CCOCC2)c1 | . | . | 21% | -1.6%
C#CCOCCOCCOCCNc1nc(N2CCN(C(=O)[C@H](CCCCN)n3cc(C(N)CO)nn3)CC2)nc(N2CCN(C(=O)[C@H](CCC(=O)O)n3cc(C(N)CC(C)C)nn3)CC2)n1 (stereo partly specified) | 6% | 6 | . | .
CC(C)(C)C(=O)NC(=S)Nc1sc2c(c1C#N)CCCCC2 | -36% | -14 | -3% | -1.6%
COc1ccc(S(=O)(=O)NCC(c2ccc(F)cc2)N2CCN(C)CC2)cc1 (stereo unspecified) | . | . | 12% | 0.2%
CC(C)COc1ccc(C(=O)NNC(=O)c2ccc(=O)[nH]c2)cc1 | . | . | 10% | 3.9%
COc1cccc2c(=O)c3c(cnn3C)n(C)c12 | -21% | ? | ? | ?
O=C(c1cc2sccc2n1Cc1ccccc1)N1CCc2ccccc21 | -1% | -3 | 4% | -4.5%
Cc1ccc(C2(c3noc(CN(C)CCO)n3)CCCC2)cc1 | -5% | -16 | 6% | 0.8%
COc1ccc(S(=O)(=O)N2CCC(C(=O)N(C)Cc3ccc(C)o3)CC2)cc1OC | . | . | 3% | 3.8%
Cc1cc(C)n2nc(SCC(=O)N(C)Cc3ccccc3)nc2n1 | -10% | -4 | 22% | -1.3%
CCOCC(=O)Nc1ncc(S(=O)(=O)c2ccc([N+](=O)[O-])cc2)s1 | 9% | -4 | -1% | 1.3%
Cc1ccc(-c2csc3ncnc(-n4cnc5ccccc54)c23)cc1 | 21% | -4 | -1% | 1.0%
O=C(Nc1ccc(N2CCOCC2)cc1)c1ccc(Cl)c(S(=O)(=O)N2CCCC2)c1 | . | . | -2% | -0.2%
O=c1[nH]c2ccccc2nc1N1CCOCC1 | -4% | -1 | 8% | -1.4%
COCCNC(=O)Cn1nc(-c2ccccc2C)ccc1=O | 3% | . | 5% | 0.0%
Cc1cccc(-n2nc3c(c2NC(=O)C(C)C)CSC3)c1 | -2% | . | -14% | 0.4%

# Quoted at random: 2 compounds from above
SMILES | miR-21 FLuc | GLA inh pH 4.5 | Rango release inh | Rango complex inh
COc1ccc(S(=O)(=O)N2CCC(C(=O)N(C)Cc3ccc(C)o3)CC2)cc1OC | . | . | 3% | 3.8%
COCCNC(=O)Cn1nc(-c2ccccc2C)ccc1=O | 3% | . | 5% | 0.0%

# Later entries.
SMILES | miR-21 FLuc | GLA inh pH 4.5 | Rango release inh | Rango complex inh
COc1ccc(C(CNC(=O)C(C)(C)Oc2ccc(Cl)cc2)N2CCOCC2)cc1 (stereo unspecified) | . | . | ? | 0.6%
CCOC(=O)C1=C(CCc2ccccc2)NC(=O)NC1c1cccc([N+](=O)[O-])c1 (stereo unspecified) | 0% | . | 23% | -0.3%
CCN1CC2=C(OC(N)=C(C#N)C2c2cccs2)/C(=C/c2cccs2)C1 (stereo unspecified) | 15% | -3 | ? | ?
O=C(O)CCNC(=O)/C(=C\C=C\c1ccccc1)NC(=O)c1ccccc1 | 1% | 0 | 3% | 0.4%
O=C(Cc1ccc(Cl)cc1)Nc1ccncc1 | 18% | 4 | 41% | 4.4%
CC(=O)Nc1ccc(Nc2cc(C)nc3c(-c4ccccc4)cnn23)cc1 | 10% | 3 | -12% | -1.9%
COC(=O)C(Cc1ccccc1)NC(=O)CNC(=O)c1ccc(Br)o1 (stereo unspecified) | . | . | -21% | 2.8%
C=CCn1c(SCc2nc3ccccc3c(=O)[nH]2)nc2scc(C3CC3)c2c1=O | -4% | 0 | -14% | ?
COCc1cc(CN2CCN(C)CC2)c(O)c2ncccc12 | ? | 4 | 3% | 11%
Cc1ccccc1-c1ncc(CN2CCC(CO)(CCCc3ccccc3)CC2)cn1 | 2% | -4 | 1% | 0.4%
Nc1nc2ccccc2n1C(=O)c1ccccc1 | 19% | -2 | -5% | 4.3%

# Screening results from PubChem.
